Mtb hypoxia rep: reduces hypoxia-regulated biosensor signal in M. tuberculosis | fluorescence inhibition, % (no concentration beside the values) | 0.1% of 300,000 active | M. tuberculosis hypoxia-regulated fluorescent reporter, fluorescence;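 active = 35 to 45% if threefold the growth effect, above 45% if 1.5-fold the growth effect; inactive = the rest, general growth blockers included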;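 note: wells of about 50 µL received 100 nL stock; 0% = vehicle wells and 100% = reference inhibitor wells; whole bacteria with a GFP reporter of the hypoxia response; strong numbers were not always called active; many hits fall short of the cut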
Autofluor counter: compound fluorescence in toxin protease inhibitor counterscreen; 3.1% of 360,000 active; compound autofluorescence counterscreen, microsphere flow cytometry; stronger effect = higher value; fluorescence intensity (test concentration not listed); AID 624483;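 active = at least 3 SD above the mean of all compounds, about 16000 in these data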;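 note: 100 nL of 1 mM stock went into each well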
Sa ugtP lethal: growth inhibition of S. aureus ugtP deletion strain; 0.54% of 330,000 active; AID 1259309; growth inhibition, % (concentration not given with the values); S. aureus RN4220 ugtP deletion, OD600 growth, 16 h; some inactives read as strong as hits;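 active = z-score under -3 and OD600 up to 0.15 on both plates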;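 note: plate controls were untreated wells for no effect and antibiotic for full effect; wells of about 80 µL received 100 nL stock; the first replicate is given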
RN4220 kill: S. aureus RN4220 growth inhibition. OD600, 16 h. inhibition, % (test concentration not listed). 0.33% of 330,000 active. AID 1259311;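 active = z-score of -3 or lower and OD600 up to 0.18 on both plates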;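 note: plate controls were untreated cells for no effect and reference antibiotic for full effect; stock transfer was 100 nL into about 80 µL; one replicate is shown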
PrP 5UTR inh: suppresses PrP 5' UTR mRNA reporter expression. cell-based PrP 5' UTR mRNA reporter, plate reader. inhibition, % (no concentration beside the values). 0.35% of 340,000 active. AID 488862;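 active = every replicate at 50% or more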;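 note: 0 = median of the neutral control wells; tested in H4 reporter cells; numbers are from one replicate; inactives centre near -14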
BJeLR viability: kills HRASV12-expressing BJeLR cells. BJeLR (HRASV12) viability, CellTiter-Glo ATP luminescence, 48 h; reference of the scale not given here. inhibition, % (test concentration not listed). 0.17% of 300,000 active. AID 1554;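 active = replicate mean above 50%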;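 note: 50 nL library stock added to about 25 µL; numbers are from one replicate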
Mtb hypoxia rep growth: also measured in Mtb hypoxia rep; calls as there; growth inhibition, %; measured here: M. tuberculosis growth (absorbance);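 0% = vehicle and 100% = reference antibiotic; read after six days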
The depositor's hits bear a star; . = no result given; & = joins results of further samples.

Start of the data: the first three compounds as a preview:
Results follow in this order: Mtb hypoxia rep, Mtb hypoxia rep growth, Autofluor counter, Sa ugtP lethal, RN4220 kill, PrP 5UTR inh, BJeLR viability
> CC(C)CN(C(=O)c1cccc([N+](=O)[O-])c1)c1c(N)n(CC(C)C)c(=O)[nH]c1=O
    9, 4, 3571, 4, 2.8, -26, 5
> C/C(=N\NC(=O)c1ccc(O)cc1)c1ccc(N2CCOCC2)cc1
    ., ., 4668, ., ., -20, 12
> CCOC(=O)C1C2COc3ccc(Cl)cc3C2N2C(=O)CN(C)C(=O)[C@@]12C (stereo partly specified)
    6, 6, ., -1, 3.3, ., .

Results, from the start:
Results follow in this order: Mtb hypoxia rep, Mtb hypoxia rep growth, Autofluor counter, Sa ugtP lethal, RN4220 kill, PrP 5UTR inh, BJeLR viability
> CC(C)CN(C(=O)c1cccc([N+](=O)[O-])c1)c1c(N)n(CC(C)C)c(=O)[nH]c1=O
    9, 4, 3571, 4, 2.8, -26, 5
> C/C(=N\NC(=O)c1ccc(O)cc1)c1ccc(N2CCOCC2)cc1
    ., ., 4668, ., ., -20, 12
> CCOC(=O)C1C2COc3ccc(Cl)cc3C2N2C(=O)CN(C)C(=O)[C@@]12C (stereo partly specified)
    6, 6, ., -1, 3.3, ., .
> NC(=O)C1CCN(C(=O)CN2CCN(c3cccc(C(F)(F)F)c3)CC2)CC1
    -5, 1, 3916, -2, -1.2, 8, 2
> Cc1ccc(C2=CC(c3ccc(C)cc3)n3ncnc3N2)cc1 (stereo unspecified)
    19, 4, 4173, 5, 4.4, 3, 5
> CCc1cc2c3c(c(=O)oc2cc1OC)CCCC3
    7, 5, 3955, 10, 11, -22, 0
> Cc1ccc(F)cc1NC(=O)CSc1nc(Nc2ccccc2)nc(N2CCOCC2)n1
    -5, -1, 4187, 5, 0.2, -2, -3
> COc1ccc(C=NNc2ncnc3sc(C)c(C)c23)cc1
    -2, -3, ., 7, 6.6, ., .
> Cc1ccc(Oc2ccc(Oc3ccc(C)cc3)nn2)cc1
    10, 30, 5703, -1, -2.5, -10, 10
> COP(=O)(c1ccc(N(C)C)cc1)C(O)c1ccccc1 (stereo unspecified)
    -3, -1, 3684, 5, -1.7, -9, -18
> CC(C)NCCCCOc1cccc(Br)c1
    5, 8, 2264, 16, 2.8, -2, 6
> CCOC(=O)c1c(C)[nH]c(C(=O)COC(=O)c2oc3ccccc3c2C)c1C
    11, 12, 6070, 10, 5.5, -13, -1
> N#CCSc1nc(N)c(C#N)c(C2CCCCC2)c1C#N
    ., ., 2265, 14, 7.7, 1, 10
> Cc1sc(N/N=C/C=C/c2ccccc2)nc1-c1ccccc1
    ., ., 3257, ., ., 1, 2
> CCc1nnc(NC(=O)CSc2nnc(-c3c[nH]c4ccccc34)n2CCOC)s1
    3, 10, 10334, -4, 3.1, 0, 3
> CC(=O)c1sc(-c2ccc(Cl)cc2)cc1N
    0, 5, 5893, -9, 5.2, -41, 2
> CC(C)(CO)NCC#Cc1ccccc1
    -3, 3, 4284, -9, 3.1, -51, 3
> O=C(CCCN1C(=O)/C(=C/c2ccco2)SC1=S)Nc1ccccc1C(=O)O
    8, -2, 4944, 8, 6.8, 0, -5
> CN(C)c1ccc(/C=N/Nc2nncc3ccccc23)cc1
    ., ., 4002, ., ., 5, 17
> CC(C(=O)OCC(=O)c1ccccc1)N1C(=O)C2C3CCC(C3)C2C1=O (stereo unspecified)
    5, 2, 4314, 1, 1.5, -60, 4
> Cc1ccc2nc(NCC(N)=O)nc(-c3ccccc3)c2c1
    6, -3, ., 3, 1.0, ., -3
> CCOc1cc(CNc2ccc(N3CCOCC3)cc2)cc(Br)c1OCC
    -2, 3, 2011, 1, -0.3, -12, 4
> CC(C)(C)c1ccc(-c2n[nH]c(=S)n2CCCN2CCOCC2)cc1
    -8, -5, 4338, 2, 4.7, -34, 5
> CN1C(=O)C(=Cc2ccc(-c3cccc(Cl)c3)o2)C(=O)N(C)C1=O
    -6, 10, ., -6, -1.4, ., -13
> O=C(CCc1ccccc1)NNC(=O)c1ccc(Cl)cc1
    7, 1, 3164, 9, 1.0, -16, -3
> Cc1ccc(S(=O)(=O)Nc2cc(=O)[nH]c(SCC(=O)Nc3cccc(C(F)(F)F)c3)n2)cc1
    2, -7, 3088, 9, 6.8, -15, -12
> NC(=O)c1ccc(Cn2c(C(=O)c3cc(Cl)c(N)c(Cl)c3)c3ccccc3[n+]2[O-])cc1
    9, 9, 3828, -18, 6.6, -35, .
> COc1ccc2c(CC(=O)Nc3ccc(OC)c(NS(=O)(=O)c4ccc(F)cc4)c3)coc2c1
    3, 11, 4171, -5, 3.6, -9, 4
> CCCCNC(=O)CCc1nc2cccnc2n1Cc1ccccc1
    -1, 5, 3806, 4, 3.6, 4, 3
> Cc1ccc(C(=O)NN=Cc2cc3c(cc2Br)OCO3)s1
    2, -1, ., -9, 14, ., .
> Cc1nc(N(CCO)C2CCCCC2)c2nnn(Cc3ccccc3)c2n1
    ., ., 3554, 0, 1.7, -26, 20
> O=C(Nc1ccccc1N1CCOCC1)C1CCN(S(=O)(=O)c2ccc(F)cc2)CC1
    ., ., 2036, ., ., -4, 1
> Cc1cc(Nc2ccc3c(c2)OCCO3)n2nc(C)nc2n1
    ., ., 4513, -8, 1.6, -11, -6
> CCOC(=O)C1(C)Oc2ccccc2C(c2ccc(OC)cc2)=C1C(=O)OC (stereo unspecified)
    3, 3, 3082, 22, 5.2, -33, .
> CCOc1ccccc1NC(=O)CN(c1ccc(C)cc1)S(=O)(=O)c1c(C)n[nH]c1C
    ., ., 4050, -10, 1.7, -5, 24
> CC(C)c1ccc(-c2cc(C(=O)NN3CCN(C)CC3)c3ccccc3n2)cc1
    6, 3, 8753, 1, 4.7, -14, -1
> Cc1nc(C(F)(F)F)ccc1C(=O)Nc1ccccc1N1CCOCC1
    -4, -8, 5608, 3, 3.7, -14, -4
> CCOC(=O)C1CCN(CCC(=O)Nc2ccc(C)c(C)c2)CC1
    1, -8, 4471, -12, -1.9, -27, .
> CN(C(=O)c1cccc(NC(=O)C2CCCN(C(=O)OC(C)(C)C)C2)c1)C1CCC1 (stereo unspecified)
    9, 15, 4193, -12, 2.1, -21, .
> COCCn1c(=O)c2c(nc3n2CCCN3CCc2ccc(OC)c(OC)c2)n(C)c1=O
    -2, 2, 3962, 0, 3.4, -31, 1
> O=C1N/C(=N\N=Cc2cccs2)SC1Cc1ccc(Cl)cc1 (stereo unspecified)
    11, -3, ., 1, 3.2, ., .
> Cc1ccc(S(=O)(=O)N(Cc2cccnc2)Cc2cc3ccccc3[nH]c2=O)cc1
    -8, 4, 5593, 3, 1.2, -1, 2
> O=C(CNC(=O)c1ccc(OC(F)F)cc1)NCC1CCCO1 (stereo unspecified)
    7, 3, 5768, 1, 3.3, -8, 5
> CC(C)CC(=O)NC(=S)Nc1cc(C(=O)O)ccc1Cl
    2, 6, 2382, 10, 3.7, 3, 6
> Cc1ccc(N(CC(O)CN2C(=O)NC(C)(C)C2=O)S(=O)(=O)c2ccc([N+](=O)[O-])cc2)cc1 (stereo unspecified)
    2, 11, 5196, -4, -2.3, -10, 1
> O=C(/C=C/c1ccc([N+](=O)[O-])cc1)Nc1cccnc1
    0, 5, 3844, -5, 7.6, -45, -11
> CCc1nnc(NC(=O)Cn2ccc(C(F)(F)F)n2)s1
    14, 8, 3353, 14, 5.0, -6, 2
> C=CCn1c(O)c(/C(CC)=N/NC(=S)Nc2ccccc2)c(=O)[nH]c1=O
    5, -2, ., 9, 2.4, 5, 2
> CC(=O)N1N=C(c2ccccc2)CC1c1ccc(F)cc1 (stereo unspecified)
    6, 1, 4119, -2, 4.3, -23, -16
> CC(=O)N1CCc2cc(Br)cc(S(=O)(=O)NCc3ccccn3)c21
    ., ., 2798, -1, 2.8, -8, -19
> COc1cccc(NP(=O)(Oc2ccccc2)Oc2ccccc2)c1
    4, 2, 2129, -20, 2.9, -20, 21
> CC(C)C(C(=O)Nc1ncn[nH]1)N1C(=O)c2ccccc2C1=O (stereo unspecified)
    5, 9, 2462, 5, 1.5, -5, 1
> NS(=O)(=O)c1ccc(NC(=O)/C=C/c2ccco2)cc1
    -2, 12, 3271, -1, 2.2, -28, 8
> Cc1cnc(NC(=O)NCC2CCCC(CNC(=O)Nc3ncc(C)s3)C2)s1 (stereo unspecified)
    -3, -8, 5029, 2, -0.4, -36, 0
> CC(C)c1ccc(C2NC(=O)c3ccccc3O2)cc1 (stereo unspecified)
    8, 3, 5556, -1, -0.2, -30, 4
> CCOC(=O)C1CCN(C(=O)CCc2nc3ccccc3[nH]2)CC1
    ., ., 2117, 0, 5.2, -19, 3
> CCCc1nc2c(sc3nc4c(cc32)COC(C)(C)C4)c(=O)n1Cc1ccco1
    2, 3, 10577, 6, 3.1, -11, 2
> COc1cc(NC(=S)NC(=O)CCc2ccccc2)cc(OC)c1
    11, 5, 6208, -17, -3.5, 2, -4
> CN1C(=O)Cc2cc(S(=O)(=O)N3CCOCC3)ccc21
    3, 5, 10065, 1, 4.7, 5, -1
> Cc1cc(C(=O)N2CCCC(Nc3ccc(F)cc3)C2)n(C)n1 (stereo unspecified)
    2, 5, 4421, 1, -1.0, -12, -7

Going on with the list.
Results follow in this order: Mtb hypoxia rep, Mtb hypoxia rep growth, Autofluor counter, Sa ugtP lethal, RN4220 kill, PrP 5UTR inh, BJeLR viability
> CCC1CSC(Nc2ccc(C(=O)/C=C/c3ccc(Oc4ccccc4)cc3)cc2)=N1 (stereo unspecified)
    -6, -1, 2276, 5, -6.5, -36, -5
> CCCCN(CC)CCNC(=O)c1cc2c(-c3ccccc3F)nn(C)c2s1
    0, -6, 3189, -3, -0.3, 0, 8
> O=c1nc(-c2ccccc2)n(-c2ccccc2)c2ncccc12
    11, 13, 9325, 4, 5.0, -26, -1
> O=S(=O)(c1ccccc1)N1CCC(O)(CSc2ccc(F)cc2)CC1
    -8, 0, 4345, 4, 2.1, -23, 6
> CN1CCN(C(=O)c2ccc(CNS(=O)(=O)c3cccc(Cl)c3)cc2)CC1
    7, -5, 6118, -1, 7.6, -15, 9
> COc1ccc2c(C=Nc3c(C)n(C)n(-c4ccccc4)c3=O)c(O)n(Cc3ccco3)c(=O)c2c1
    -13, 2, 3306&10759, 5, -26, -19&4, -11
> O=C(C=Cc1cccc([N+](=O)[O-])c1)Nc1cc(C(=O)O)cc(C(=O)O)c1
    6, 10, ., 2, 1.3, ., .
> CC1CCN(CCC(=O)Nc2ccccc2)CC1
    10, 8, 5106, 4, 4.9, -24, 2
> CC(=O)c1ccc(OCc2cc(C(=O)N3CCC(c4ccncc4)CC3)no2)cc1
    -1, -1, ., 3, 1.4, -18, 8
> Cc1ccc(C)c(N2CCN(S(=O)(=O)c3ccc(-c4ccc(=O)[nH]n4)o3)CC2)c1
    7, 2, 5004, -8, 2.0, -11, -5
> O=C1NC(=O)/C(=C\c2ccsc2)N1
    9, 9, 3828, 3, -0.1, -12, 6
> COC(=O)COc1ccc2oc(=O)cc(C)c2c1
    ., ., 4396, -1, -0.7, -18, 4
> O=C(COC(=O)C1CCC1)Nc1ncc(Cl)cc1Cl
    1, 0, 6758, 0, 0.7, -22, -7
> Cc1cccc(C(=O)NN=Cc2coc3ccccc3c2=O)c1
    -1, -5, ., 1, 4.5, ., .
> Cc1c(C(=O)N2CCCCC2)sc(NC(=O)C2CC2)c1C#N
    8, 6, 12957, 0, 0.7, -25, -1
> Cn1c(SCC(=O)N2CCOCC2)nnc1-c1cnccn1
    8, 14, 11412, -1, 3.5, -16, -7
> CCOc1ccc(-n2cc(C(=O)NC(C)C)c3cc(OC)c(OC)cc3c2=O)cc1
    5, 4, 3744, 2, 3.7, -18, 4
> O=C(/C=C/c1ccccc1[N+](=O)[O-])c1ccccc1Br
    ., ., 3373, 13, 30, -20, 4
> O=C1N(CN2C(=O)C3(OCCO3)c3ccccc32)c2ccccc2C12OCCO2
    ., ., 2478, -3, -2.3, -20, -3
> O=[N+]([O-])c1ccc(CN2CCN(c3ccc(F)cc3)CC2)o1
    ., ., 4067, 7, 7.0, -25, 6
> COc1ccc(NC(=O)C2C3CCC(O3)C2C(=O)O)c(C)c1 (stereo unspecified)
    ., ., 3930, ., ., -9, 1
> CCOc1ccc(OCCCC(=O)N(C)CC(=O)Nc2ccccc2Br)cc1
    20, 13, 3547, -4, 5.5, -17, .
> O=C(O)CCCCCN1C(=O)C(=Cc2ccncc2)SC1=S
    10, 17, ., 11, 11, ., .
> Cc1ccc2c(c1)nnn2C1CCN(CC(=O)NCCc2ccccc2)CC1
    4, 6, 11724, 5, 5.5, -19, 9
> COc1ccccc1NC(=O)C(C)N1C(=O)c2ccccc2C1=O (stereo unspecified)
    -5, -2, ., 5, 2.7, -7, 2
> COc1ccccc1CNC(=O)c1ccc(C)s1
    12, 14, 4459, 21, 9.8, -44, -3

Bioassay records from PubChem.
